Bioassay records (PubChem BioAssay)
Vaccinia mCherry – inhibitors of vaccinia virus infection (mCherry reporter signal); Potency, µM (highest dose often 36.5 µM), without a hit: at the highest dose activity change, negative = inhibition, usual class: inhibitors; 0.63% of 310,000 active; Vaccinia virus mCherry reporter infection, fluorescence; about a quarter of the inactives have no number; active = well fitted inhibition curve with a large enough effect; inconclusive = small, poorly fitted or top-dose-only effect; inactive = no such curve, though single readings can be large or run the other way; tested in A549 cells; note: nearly all actives have a fitted effect of over 35% in size; inactives centre near -10
Vaccinia Venus – vaccinia inhibition (Venus reporter); 0.46% of 330,000 active; Vaccinia virus Venus reporter expression, fluorescence; Potency, µM (doses to about 36.5 µM), for inactives: top-dose activity change, negative = inhibition, usual class: inhibitors; AID 720580; active means well fitted inhibition curve with a large enough effect; inconclusive means small, poorly fitted or top-dose-only effect; inactive means no such curve, though single readings can be large or run the other way; tested in A549 cells; note: nearly all actives have a fitted effect of over 30% in size; inactives centre near -10
* = called active by the depositor; & = joins results of further samples; [ ] = another dose, or the depositor's remark. % is set by controls: 0 for no effect and ±100 for the full control effect; potency is the fitted concentration of half-maximal effect. The order is random (roughly 0.87% active in at least one column).

Screening COc1cccc(OCc2cc(C(=O)N3C[C@H]4C[C@@H](C3)c3cccc(=O)n3C4)no2)c1 returned Vaccinia mCherry -3% and Vaccinia Venus inconclusive.
CCN(CC)c1ccc(NC(=O)CN2CCN(c3ccccc3F)CC2)cc1 was read as Vaccinia mCherry -15% and Vaccinia Venus -18%&-10%.
For CCCCN(CC)S(=O)(=O)c1c(C)[nH]c(=O)[nH]c1=O the results were Vaccinia mCherry -5% and Vaccinia Venus -5%.
N=C1C(c2nc3ccccc3s2)=C(O)CN1NC(=O)c1ccc([N+](=O)[O-])cc1 was read as Vaccinia mCherry inactive and Vaccinia Venus -10%.
For CC(=O)N1CCCc2ccc(NS(=O)(=O)c3cccc(Cl)c3)cc21 the results were Vaccinia mCherry inactive and Vaccinia Venus -11%.
For C[C@H](N)c1nnc(SCC(N)=O)o1 the results were Vaccinia mCherry -17% and Vaccinia Venus -14%.
`O=C(c1cc(COc2ccc(F)cc2Cl)on1)N(Cc1ccncc1)CC1CCCO1` (stereo not drawn) gave Vaccinia mCherry inactive and Vaccinia Venus -13%.
For Cc1nnc2ccc(-c3ccc(NS(C)(=O)=O)cc3)nn12 the results were Vaccinia mCherry -2% and Vaccinia Venus -16%.
COc1ccccc1C1CN(CCNC(=O)c2cscn2)Cc2ccccc2O1 (stereo not drawn) was read as Vaccinia mCherry -11% and Vaccinia Venus -5%.
For CCC(C(=O)Nc1ccccc1OC)n1c(C(=O)OC)cc2ccsc21 (stereo not drawn) the results were Vaccinia mCherry -1% and Vaccinia Venus -6%.
Screening Cc1cccc(Cn2c(=O)n(CCCC(=O)NCc3ccco3)c(=O)c3ccccc32)c1 returned Vaccinia mCherry inconclusive and Vaccinia Venus -22%.
Screening CCOc1cccc(-c2cnc3cccnn23)c1 returned Vaccinia mCherry 10% and Vaccinia Venus -1%.
Screening O=C(COC(=O)Cc1ccc(F)cc1)Nc1ccc2[nH]c(=O)[nH]c2c1 returned Vaccinia mCherry -16% and Vaccinia Venus -6%.
Screening CC(C)c1ccc(-n2c(O)c(C=NC(CCS(C)=O)C(=O)O)c(=O)[nH]c2=S)cc1 (stereo not drawn) returned Vaccinia mCherry -4% and Vaccinia Venus 7%.
Screening CCn1c(SCC(=O)Nc2c(C)n(C)n(-c3ccccc3)c2=O)nnc1-c1cccc(C)c1 returned Vaccinia mCherry -16% and Vaccinia Venus -2%.
Screening CSc1cccc(NC(=O)C2CCCN(C(=O)c3cnn(-c4ccc(F)cc4)c3-n3cccc3)C2)c1 (stereo not drawn) returned Vaccinia mCherry -25% and Vaccinia Venus inconclusive.
For Nc1nc(SCC(=O)N2CCc3ccccc32)[nH]c(=O)c1-c1ccccc1 the results were Vaccinia mCherry -4% and Vaccinia Venus 8%.
`O=C(C[C@H]1CC[C@H]2[C@@H](COC[C@H](O)CN2C(=O)c2ccccn2)O1)N1CCN(c2ccccc2)CC1` gave Vaccinia mCherry -5% and Vaccinia Venus 0%.
`O=C(NC1CCCN(Cc2ccc(Cl)cc2)C1)c1ccoc1` (stereo not drawn) gave Vaccinia mCherry inactive and Vaccinia Venus -9%.
For O=C(NCCN1CCOCC1)c1csc2c1CCCC2 the results were Vaccinia mCherry inactive and Vaccinia Venus -6%.
COc1ccccc1CN(C)C(=O)CN1CCN(CC(=O)Nc2ccccc2Cl)CC1 was read as Vaccinia mCherry -9% and Vaccinia Venus -18%.
Screening COc1ccc(NS(=O)(=O)c2ccc3c(c2)CCO3)cc1 returned Vaccinia mCherry -4% and Vaccinia Venus -22%.
CCNc1ccc(C(=O)Nc2ccc3nc(C)sc3c2)cc1[N+](=O)[O-] was read as Vaccinia mCherry -16% and Vaccinia Venus -7%.
CCOc1ccccc1/C=N/Nc1ccc(Cl)nn1 was read as Vaccinia mCherry -19% and Vaccinia Venus -24%.
CC(=O)O[C@]1(C(C)=O)CC[C@H]2[C@@H]3C[C@H](C)C4=CC(=O)CC[C@]4(C)[C@H]3CC[C@@]21C was read as Vaccinia mCherry -6%&-13% and Vaccinia Venus -21%&-17%&-4%.
`CN(CC(=O)Nc1ccccc1C(F)(F)F)C(=O)CSCc1ccccc1` gave Vaccinia mCherry -6% and Vaccinia Venus 0%.
`CCOc1ccc2nc(N3CCCC(C(=O)NCc4ccc(OC)cc4)C3)sc2c1` (stereo not drawn) gave Vaccinia mCherry -7% and Vaccinia Venus -15%.
For CCc1nn(C(C)C(=O)N2CCc3ccccc3C2)c(=O)c2cc3occc3n12 (stereo not drawn) the results were Vaccinia mCherry -6% and Vaccinia Venus -16%.
CN1CCN(C(=O)C2Cc3c(-c4ccc5c(c4)OCO5)ccnc3O2)CC1 (stereo not drawn) was read as Vaccinia mCherry 1% and Vaccinia Venus -2%.
For Cc1nnc(NC(=O)CSc2nccn2-c2ccc(Cl)cc2)s1 the results were Vaccinia mCherry -12% and Vaccinia Venus -8%.
C/C(CC(=O)Nc1cc(C)ccn1)=N\NC(=O)c1ccc(C)cc1 was read as Vaccinia mCherry -27% and Vaccinia Venus 0%.
Screening CCN1C(=O)N[C@H](c2ccc(Br)cc2)C(C(=O)OC)=C1C returned Vaccinia mCherry inactive and Vaccinia Venus -9%.
O=C(O)c1ccc2c(c1)c1c3n2CCNC3CCC1 (stereo not drawn) was read as Vaccinia mCherry -10% and Vaccinia Venus -3%.
Screening COc1ccc(OC)c(-c2cc(C(=O)N/N=C/c3cc(OC)c(OC)cc3OC)c3ccccc3n2)c1 returned Vaccinia mCherry -3% and Vaccinia Venus -7%.
CC1=NN(c2ccc(Cl)cc2)C(=O)C1C(c1ccccc1O)c1c(C)[nH]n(-c2ccc(Cl)cc2)c1=O (stereo not drawn) was read as Vaccinia mCherry inconclusive and Vaccinia Venus -27%.
For CC(=O)Nc1ccc(NC(=O)c2ccc3c(c2)CCN3S(C)(=O)=O)cc1 the results were Vaccinia mCherry inactive and Vaccinia Venus -1%.
Screening CC(C(=O)N1CCN(Cc2ccc3c(c2)OCO3)CC1)n1cc([N+](=O)[O-])cn1 (stereo not drawn) returned Vaccinia mCherry inconclusive and Vaccinia Venus -14%.
Screening CC(C)n1c(C(=O)OCC(=O)NCc2ccc3c(c2)OCO3)cc2sccc21 returned Vaccinia mCherry -19% and Vaccinia Venus inconclusive.
`O=C1CCCCCN1C(=O)c1ccc(C(=O)N2CCCCCC2=O)cc1` gave Vaccinia mCherry -12% and Vaccinia Venus -10%.
CC(=O)Nc1cccc(/C(C)=N/NC(=O)c2cccs2)c1 was read as Vaccinia mCherry -1% and Vaccinia Venus -11%.
CCOC(=O)C1=C(C)OC(N)=C(C#N)C1c1ccc(OC)c(CSc2ccccn2)c1 (stereo not drawn) was read as Vaccinia mCherry -17% and Vaccinia Venus -3%.
COc1ccccc1CNC(=O)c1cc(C(C)=O)c[nH]1 was read as Vaccinia mCherry inactive and Vaccinia Venus -19%.
`CCc1noc(C)c1C(=O)OCC(=O)Nc1nc(-c2ccc(F)c(F)c2)cs1` gave Vaccinia mCherry -19% and Vaccinia Venus -6%.
`O=C(Nc1ccc(N2CCOCC2)cc1)c1ccccc1SCC(=O)N1CCCC1` gave Vaccinia mCherry -3% and Vaccinia Venus -11%.
CCCCN1CC(COCc2ccccc2)Oc2cccc(Oc3ccc(C)cc3)c2S1(=O)=O (stereo not drawn) was read as Vaccinia mCherry inactive and Vaccinia Venus -17%.
For COc1ccccc1OCc1nc(C#N)c(N2CCC(C(N)=O)CC2)o1 the results were Vaccinia mCherry inconclusive and Vaccinia Venus -25%.
Screening CC(C)(C)OC(=O)N1CCC(c2c(C(=O)NCc3cccs3)cnn2-c2ccc(F)cc2F)CC1 returned Vaccinia mCherry -6% and Vaccinia Venus 2%.
`COc1ccc(OC)c(NC(=O)Cn2c(=O)n(Cc3ccco3)c(=O)c3cc(OC)c(OC)cc32)c1` gave Vaccinia mCherry -14% and Vaccinia Venus -11%.
Screening CCn1nnnc1-c1ccc(OC)c(S(=O)(=O)Nc2ccc(S(N)(=O)=O)cc2)c1 returned Vaccinia mCherry -3% and Vaccinia Venus -1%.
O=C(N/N=C/c1ccc(N2CCOCC2)o1)c1ccccc1[N+](=O)[O-] was read as Vaccinia mCherry -13% and Vaccinia Venus 4%.
Cc1ccccc1CN1C(=O)c2ccccc2Sc2ccc(C(=O)O)cc21 was read as Vaccinia mCherry -4%&-10% and Vaccinia Venus 7%&-4%.
CS/C(=N\S(=O)(=O)c1cccs1)Nc1ccc(F)cc1 was read as Vaccinia mCherry -21% and Vaccinia Venus -24%.
For Cc1ccc(NC(=O)c2cnn(-c3ccccc3)c2NC(=O)c2ccco2)cc1C the results were Vaccinia Venus -9%.
For CC(=O)c1c(C)[nH]c(C(=O)COC(=O)c2ccc(C)s2)c1C the results were Vaccinia mCherry -7% and Vaccinia Venus 3%.
N#Cc1ccccc1Cn1c(=O)n(-c2cccc(C(F)(F)F)c2)c(=O)c2sccc21 was read as Vaccinia mCherry -9% and Vaccinia Venus -4%.
CN(/N=C/c1ccc(N(C)C)cc1)C1=NS(=O)(=O)c2ccccc21 was read as Vaccinia mCherry inactive and Vaccinia Venus -12%.
COCCCNC(=O)CC1Oc2ccccc2NC1=O (stereo not drawn) was read as Vaccinia mCherry inactive and Vaccinia Venus 2%.
`O=C(O)C1CC=CCC1C(=O)NCc1cn2ccccc2n1` (stereo not drawn) gave Vaccinia mCherry 29% and Vaccinia Venus -1%.
CN(Cc1ccccc1)C(=O)c1cccc(NC(=O)Cc2ccc(NC(=O)C3CCN(C(=O)CCc4ccccc4)CC3)cc2)c1 was read as Vaccinia mCherry inconclusive and Vaccinia Venus inconclusive.
O=C(N/N=C/c1ccncc1)c1ccc(-n2cccc2)cc1 was read as Vaccinia mCherry -3% and Vaccinia Venus -4%.
For Cc1cccc(C)c1NC(=S)N/N=C1\CC2CC=CC12 (stereo not drawn) the results were Vaccinia mCherry -5% and Vaccinia Venus 3%.
For CC(=O)C[C@@H](O)CC(=O)[C@@H]1OC(=O)[C@@H](C)CCCCc2ccccc21 the results were Vaccinia mCherry inactive and Vaccinia Venus -2%.
`COC(=O)c1ccc(Oc2cc(C)nc(NCc3ccccc3)n2)cc1` gave Vaccinia mCherry -11% and Vaccinia Venus -12%.
For Cc1ccc(S(=O)(=O)c2nnn(-c3cccc(F)c3)c2N)cc1 the results were Vaccinia mCherry inactive and Vaccinia Venus -4%.
`COc1ccc(S(=O)(=O)Nc2ccc3oc(C)c(C(=O)O)c3c2)cc1` gave Vaccinia mCherry inactive and Vaccinia Venus -13%.
`COc1ccc(NC(=O)N(C)C[C@H]2Oc3ccc(NC(=O)CCN4CCOCC4)cc3C(=O)N([C@@H](C)CO)C[C@H]2C)cc1` gave Vaccinia mCherry inactive and Vaccinia Venus -10%.
Screening COC(=O)c1cc(S(=O)(=O)N2CCN(c3cccc(Cl)c3)CC2)c[nH]1 returned Vaccinia mCherry -9% and Vaccinia Venus -27%.
Screening Cc1cc(C(=O)N2CCN(c3cc(Cl)ccc3C)CC2)c2c(C)nn(-c3ccccc3)c2n1 returned Vaccinia mCherry inconclusive and Vaccinia Venus -29%.
`COc1ccccc1C(=O)Nc1cc(Cl)ccc1-n1cncn1` gave Vaccinia mCherry -7% and Vaccinia Venus 0%.
`O=C(Cn1ncc2c3ccccc3n(Cc3ccccc3)c2c1=O)N1CCN(c2ccccn2)CC1` gave Vaccinia mCherry -1% and Vaccinia Venus -25%.
COc1cc(C(=O)O)ccc1OCC(=O)N1CCOCC1 was read as Vaccinia mCherry -16%[1.46 µM] and Vaccinia Venus -17%.
For CNCCCOc1ccc(Cl)cc1C(C)(C)C the results were Vaccinia mCherry inconclusive and Vaccinia Venus inconclusive.
For Cc1oc2ncnc(N3CCCCC3)c2c1C(=O)N1CCN(c2ccc(Cl)cc2)CC1 the results were Vaccinia mCherry -10% and Vaccinia Venus -4%.
O=C(Nc1ccccc1C(=O)NCc1cccnc1)c1cccc([N+](=O)[O-])c1 was read as Vaccinia mCherry inactive and Vaccinia Venus -1%.
Nc1ccc(-c2nnn(Cc3ccccc3F)n2)cc1 was read as Vaccinia mCherry -12% and Vaccinia Venus -3%.

Ten successive entries from above, for reference:
`COc1ccc(S(=O)(=O)Nc2ccc3oc(C)c(C(=O)O)c3c2)cc1` gave Vaccinia mCherry inactive and Vaccinia Venus -13%.
`COc1ccc(NC(=O)N(C)C[C@H]2Oc3ccc(NC(=O)CCN4CCOCC4)cc3C(=O)N([C@@H](C)CO)C[C@H]2C)cc1` gave Vaccinia mCherry inactive and Vaccinia Venus -10%.
Screening COC(=O)c1cc(S(=O)(=O)N2CCN(c3cccc(Cl)c3)CC2)c[nH]1 returned Vaccinia mCherry -9% and Vaccinia Venus -27%.
Screening Cc1cc(C(=O)N2CCN(c3cc(Cl)ccc3C)CC2)c2c(C)nn(-c3ccccc3)c2n1 returned Vaccinia mCherry inconclusive and Vaccinia Venus -29%.
`COc1ccccc1C(=O)Nc1cc(Cl)ccc1-n1cncn1` gave Vaccinia mCherry -7% and Vaccinia Venus 0%.
`O=C(Cn1ncc2c3ccccc3n(Cc3ccccc3)c2c1=O)N1CCN(c2ccccn2)CC1` gave Vaccinia mCherry -1% and Vaccinia Venus -25%.
COc1cc(C(=O)O)ccc1OCC(=O)N1CCOCC1 was read as Vaccinia mCherry -16%[1.46 µM] and Vaccinia Venus -17%.
For CNCCCOc1ccc(Cl)cc1C(C)(C)C the results were Vaccinia mCherry inconclusive and Vaccinia Venus inconclusive.
For Cc1oc2ncnc(N3CCCCC3)c2c1C(=O)N1CCN(c2ccc(Cl)cc2)CC1 the results were Vaccinia mCherry -10% and Vaccinia Venus -4%.
O=C(Nc1ccccc1C(=O)NCc1cccnc1)c1cccc([N+](=O)[O-])c1 was read as Vaccinia mCherry inactive and Vaccinia Venus -1%.
